# Screening results (PubChem)
# StopGo FLuc: FMDV 2A StopGo reporter, firefly signal. HEK cells with a luciferase reporter of 2A StopGo recoding. Potency, µM (doses to about 57.5 µM), for the others: at the highest dose signal change, negative = less light. 0.23% of 120,000 active. AID 1745856; active = well fitted falling curve with a large enough effect; inconclusive = small, poorly fitted or top-dose-only effect; inactive = no such curve, though single readings can be large or run the other way; further: nearly all actives have a fitted effect of over 60% in size; overnight with compound
# StopGo RLuc: FMDV 2A StopGo reporter, Renilla signal | HEK cells with a luciferase reporter of 2A StopGo recoding | Potency, µM (series often up to 57.5 µM), for the others: at the highest dose signal change, negative = less light | 0.32% of 120,000 active | AID 1745857; active means well fitted falling curve with a large enough effect; inconclusive means small, poorly fitted or top-dose-only effect; inactive means no such curve, though single readings can be large or run the other way; further: nearly all actives have a fitted effect of over 55% in size; overnight with compound
# Active calls of the source: *; u = inconclusive; [ ] = dose if it differs, or a comment. On the % scale 0 is the no-effect control and ±100 the full control effect; potency means the concentration at half of the fitted maximal effect. Only part of the results is shown (hit frequency here may not be typical).
SMILES,StopGo FLuc,StopGo RLuc
CCc1ccc(C(=O)c2cn(CC(=O)NCc3ccc(C)cc3)c3nc(C)ccc3c2=O)cc1,-4%,-17%
COc1ccc(C2NC(=O)N(C)C3=C2C(=O)N(c2ccc(C(=O)O)cc2)C3)cc1 (stereo not given),-2%,-7%
CC(C)C(NC(=O)Cn1cnc2c1c(=O)n(C)c(=O)n2C)c1ccccc1 (stereo not given),9%,-2%
CC(=O)NCC(=O)OCc1ccc(COC(=O)CNC(C)=O)cc1,9%,-1%
COc1ccc(CNCC#Cc2ccc(C)cc2)c(OC)c1,7%,19%
CC(C)c1noc(CSc2nc(-c3ccco3)nc3ccccc23)n1,-10%,-20%
O=C(CC1Nc2ccccc2NC1=O)Nc1ccccc1C(F)(F)F (stereo not given),10%,3%
O=C(CCc1nc(-c2ccsc2)no1)Nc1ccccc1N1CCOCC1,8%,12%
CC(=O)c1ccc(S(=O)(=O)Nc2cccc(-c3ccc(N4CCCC4)nn3)c2)cc1,34%[activator],57%[activator]
Cc1cccc(-n2c3c(cc(-c4nc(-c5ccc(Cl)cc5)cs4)c2=O)C(=O)CC(C)(C)C3)c1,-7%,-4%

# Part of the list above, with two lines to a compound.
# Results follow in this order: StopGo FLuc	StopGo RLuc
- CC(C)C(NC(=O)Cn1cnc2c1c(=O)n(C)c(=O)n2C)c1ccccc1 (stereo not given)
→ 9%	-2%
- Cc1cccc(-n2c3c(cc(-c4nc(-c5ccc(Cl)cc5)cs4)c2=O)C(=O)CC(C)(C)C3)c1
→ -7%	-4%

# (list continues)
SMILES,StopGo FLuc,StopGo RLuc
CCOc1ccccc1N(CC(=O)N1CCc2ccccc2C1)S(=O)(=O)c1ccccc1,-12%,103%[activator]
CNC(=O)c1ccc(-c2nc(CN3CCN(C(=O)Nc4ccccc4)CC3)c(C)o2)cc1,19%,7%
O=C1SC(Nc2ccc(Cl)cc2)C(=O)N1Cc1ccccc1 (stereo not given),8%,-1%
Cc1ccc(C(C)C)c(OCCCCN(C)C)c1,21%,5%
O=C(COC(=O)c1cccc(NC(=O)c2ccco2)c1)c1ccccc1,30%[activator],6%
CCc1cccc(C)c1Nc1c(-c2ccccc2)nc2cnccn12,-4%,-9%
CCOc1ccc2c(c1)c(=O)c(C(=O)c1ccccc1)cn2Cc1ccccc1F,-21%,0%
COc1ccccc1C(=O)N1CCN(c2oc(-c3ccccc3OC)nc2C#N)CC1,-23%,-22%
COC(=O)c1ccc(COC(=O)C23CC4CC(CC(O)(C4)C2)C3)cc1,16%,-21%
COc1ccccc1NC(=O)CN1C(=O)C(C)(C)c2ccccc21,-9%,-7%
O=c1oc(-c2ccccc2)cc(-c2ccccc2)c1-c1ccccc1,10%,0%
COc1cc2c(cc1OC)C(C)N(CC(=O)Nc1cc(C)cc(C)c1)CC2 (stereo not given),-4%,2%
CC1CCCCN1Cc1c(O)ccc2c(=O)c(-c3cccc(Cl)c3)c(C(F)(F)F)oc12 (stereo not given),1%,-2%
O=c1c2oc3ccccc3c2n(Cc2ccccc2F)c(=O)n1Cc1ccc2c(c1)OCO2,-9%,-5%
CCC1CCc2c(sc(NC(=O)/C=C/c3ccc(C(C)(C)C)cc3)c2C#N)C1 (stereo not given),5%,3%
O=C(c1sc2ccccc2c1Cl)N1CCC2(CC1)OCCO2,59%[activator],0%
CCOCCCNC(=O)c1ccc(C#N)cc1,0%,11%
COc1ccc(S(=O)(=O)N2CCC(Oc3cccc(C(F)(F)F)c3)CC2)cc1OC,-18%,-8%
O=C(c1cc(-c2ccncc2)nc2ccccc12)N1CCCC(C(F)(F)F)C1 (stereo not given),23%,49%[activator]
Cc1ccc2c(=O)cc(C(=O)N(Cc3cccc(Cl)c3)C3CCS(=O)(=O)C3)oc2c1C (stereo not given),-16%,-5%
CC(=O)Nc1ccc(C)cc1S(=O)(=O)n1cc2c(=O)n(C)c(=O)n(C)c2n1,28%,25%
O=C(NCCCCc1ccccc1)c1ccc(C(=O)NCCCCc2ccccc2)cc1,11%,3%
CCOC(=O)c1ccc(NC(=O)c2sc(NC(=O)c3ccccc3)c(C(=O)OCC)c2C)cc1,10%,-2%
NC(=O)c1ccccc1OCC(=O)Nc1ccc(S(=O)(=O)N2CCCCC2)cc1,-11%,2%
CSc1nc(-c2ccccc2Cl)nc2c1Cc1c(CO)cnc(C)c1O2,-2%,-8%
COCCCn1c(C)cc(C(=O)COc2ccc3ccc(=O)oc3c2)c1C,84%[activator],10%
CC(C)C(C(=O)NC(C)C1CC2CCC1C2)c1ccc(Cl)cc1 (stereo not given),5%,-9%[1.06 µM]
COCCNc1nc2c(c(=O)n(Cc3ccc(F)cc3)c(=O)n2C)n1C,-8%,-7%
Cc1ccc2oc(C(=O)Nc3ccc(S(=O)(=O)N4CCCCC4C)cc3)cc(=O)c2c1 (stereo not given),7%,6%
CC1CCN(S(=O)(=O)c2ccc3oc(=O)ccc3c2)CC1,5%,24%
O=C(CN(c1ccc(Cl)c(Cl)c1)S(=O)(=O)c1ccccc1)N1CCCCCC1,-3%,220%[activator]
CCn1nc(C(=O)OCC(=O)c2c[nH]c3ccccc23)c2ccccc2c1=O,0%,125%[activator]
CNS(=O)(=O)c1ccc(NC(=O)c2cc3ccccc3oc2=O)cc1,0%,20%
CSc1ccc(/C=C2\COc3ccccc3C2=O)cc1,10%,37%[activator]
Cc1cccc(C)c1OCc1cc(=O)n2c3c(sc2n1)CCCC3,10%,3%
Cc1cc(C)cc(OCc2cc(=O)n3c4c(sc3n2)CCCC4)c1,16%,7%
Cc1ccc(CCNC(=O)c2ccc3c(c2)N(Cc2ccc(F)cc2)CCS3)cc1,0%,15%
CCOC(=O)c1cnc2ccc(OC(F)(F)F)cc2c1Nc1ccccc1C(=O)O,39%[activator],0%
Cc1ccc(NC(=O)Cc2nc(CSc3nncn3-c3ccccc3C)cs2)cc1,60%[activator],19%
O=P(O)(O)C(O)(Cc1cccnc1)P(=O)(O)O,15%[11.5 µM],10%
COc1ccc(C(=O)Nc2ccc3oc(-c4ccccc4OC)cc(=O)c3c2)cc1,0%,6%
Cc1cccc(-n2c(=O)c3c(c4cc(C)ccc4n3C)n(CC(=O)Nc3ccccc3Cl)c2=O)c1,7%,-7%
OC(c1ccccc1)(c1ccccc1)C1CCN(Cc2cccc(OCc3ccccc3)c2)CC1,u,u
COc1ccc(CCOC(=O)Cc2coc3cc(C)c(C)cc23)cc1,-1%,-14%
O=C(CSc1n[nH]c(-c2ccccc2)n1)NCCCc1ccccc1,-2%,0%
CCCc1nc2c(C)cc(-c3nc4ccccc4n3C)cc2n1Cc1ccc(-c2ccccc2C(=O)O)cc1,3%,1%
CCCN(CCO)CC(=O)NC(CC)CC,1%,5%
CCCCn1nc(C(=O)Nc2ccc(Br)cc2)c2ccccc2c1=O,24%,5%
CCCCN(CC)C(=O)CCn1c(=O)c2cccn2c2cccnc21,-10%,1%
C=CCn1c(SC)nc2c1c(=O)[nH]c(=O)n2C,-2%,-9%

# Reformatted as labelled records: entries from further up.
COc1ccc(CCOC(=O)Cc2coc3cc(C)c(C)cc23)cc1
  StopGo FLuc: -1%	StopGo RLuc: -14%
O=C(CSc1n[nH]c(-c2ccccc2)n1)NCCCc1ccccc1
  StopGo FLuc: -2%	StopGo RLuc: 0%

# Following part
SMILES,StopGo FLuc,StopGo RLuc
CCc1cc2c(=O)c(-c3cnn(-c4ccccc4)c3)c(C(F)(F)F)oc2cc1O,2%,-8%
N#Cc1ccc(/C=N/Nc2ccc(S(N)(=O)=O)cc2[N+](=O)[O-])cc1,13%,1%
O=C(c1cc(-c2ccco2)nc2ccccc12)N1CCCC1,0%,11%
CC(C)COc1nc2ccccc2nc1C(C#N)C(=O)NC1CCCCC1 (stereo not given),6%,37%[activator]
COc1cccc(C2=C(C(C)=O)Sc3nnc(C4CCCCC4)n3N2C(C)=O)c1,u,u
Cc1cc(C)n(C(=O)c2ccc(S(=O)(=O)N3CCOCC3)cc2)n1,-5%,-7%
Cc1ccc(CNC(=O)CSc2ncc3c(n2)-c2ccc(Cl)cc2N(Cc2ccccc2)S3(=O)=O)cc1,-7%,4%
Cc1c(-c2ccccc2)nc2ccccc2c1C(=O)N1CCCC1,-9%,-3%
O=c1[nH]c2cc3c(cc2c(=O)n1Cc1nc(-c2ccc(C(F)(F)F)cc2)no1)OCO3,-8%,-6%
COC(=O)c1ccc(Oc2c(C)oc3cc(OC(=O)c4ccco4)ccc3c2=O)cc1,-9%,-14%
Cc1sc2ncn(CC(=O)N3CCN(c4ccc(Cl)cc4)CC3)c(=O)c2c1S(=O)(=O)N1CCN(c2ncccn2)CC1,-8%,-6%
CCCNC(=O)Cn1nc(C)c2c(C)n(-c3ccccc3)nc2c1=O,-4%,-5%
CCN(CC)S(=O)(=O)c1ccc(C)c(NC(=S)Nc2cc(S(=O)(=O)N(CC)CC)ccc2C)c1,-2%,43%[activator]
CC(C)(C)C(=O)/C=c1/[nH]c(=O)/c(=C/c2ccccc2F)s1,0%,19%
CCOc1ccc(N(C)C(=O)C2CCN(S(=O)(=O)c3ccc4c(c3)CCCN4C(C)=O)CC2)cc1,-13%,23%
CCCN1C(=O)NC(c2cccc(Cl)c2Cl)C(C(=O)Nc2cc(C)on2)=C1C (stereo not given),-6%,0%
COc1ccc(-n2nc(C(=O)N3CCCCC3C)c3c4ccccc4n(C)c3c2=O)cc1Cl (stereo not given),-5%,-13%
COc1ccc(Nc2cc(C(=O)NCC(OC)OC)c3ccccc3n2)cc1OC,10%,10%
CC(=O)N1CCc2cc(C(=O)C(C)n3nnc(-c4ccc(F)cc4)n3)ccc21 (stereo not given),0%,2%
CCc1cccc(N2C(=O)CSC23C(=O)N(Cc2ccccc2F)c2ccccc23)c1 (stereo not given),u,-4%
O=S(=O)(Nc1nc2ccccc2nc1N1CCCCC1)c1cc(Cl)ccc1Cl,-8%,-7%
O=C(Oc1ccc2c(=O)c(-c3ccccc3)coc2c1)c1cccs1,-1%,-12%
Cc1cccc(C(=O)Oc2cccc(Br)c2)c1C,0%,-1%
CC(=O)N1c2ccc(S(=O)(=O)NCc3ccccc3Cl)cc2CC1C (stereo not given),53%[activator],139%[activator]
C/C(=C\c1cn(C)c2ccccc12)[N+](=O)[O-],28%,15%
O=C(O)/C=C/c1ccccn1,16%,8%
O=C(NCC#Cc1ccccc1)C1CCN(C(=O)/C=C/c2ccccc2)CC1,0%,-8%
CC(C)(C)c1nc2cc(NC(=O)CNC(=O)c3ccc(Br)o3)ccc2o1,0%,7%
Cc1ccc(C2CCCN2C(=O)CSc2nnnn2C2CC2)cc1 (stereo not given),2%,-6%
CCn1c(C(=O)NCc2ccccc2)cc2sc(Cl)cc21,245%[activator],174%[activator]
Cc1cc(C)n(-c2nc(C)c(C)c(=O)n2CC(=O)Nc2cccc([N+](=O)[O-])c2)n1,-18%,-12%
Cc1c2occ(C(C)(C)C)c2cc2c3c(/c(=N\O)oc12)CCCC3,-7%,3%
CCCN(C(=O)c1cc2c(=O)oc3ccccc3c2s1)c1ccc(CC)cc1,-10%,-5%
O=C(NCC1CCCO1)c1ccc(-c2nnc(-c3ccccc3)o2)cc1 (stereo not given),134%[activator],9%
O=S(=O)(Nc1nc2ccccc2nc1Nc1cccc(F)c1)c1cccc2nsnc12,-3%,-6%
CC1CCc2c(sc(NC(=O)CCCOc3ccc(C(C)(C)C)cc3)c2C(N)=O)C1 (stereo not given),37%[activator],5%
COc1ccc(Cl)cc1NC(=O)CCn1nc(-c2cccs2)oc1=O,15%,1%
CCNc1c(NC(=O)Nc2cc(OC)cc(OC)c2)c(=O)oc2ccccc12,-3%,-8%
COc1ccc(Cl)cc1-c1nc(SCC(=O)NC(C)C(C)C)n[nH]1 (stereo not given),-1%,13%
COc1ccc(C2c3c(oc4ccc(F)cc4c3=O)C(=O)N2Cc2ccc3c(c2)OCO3)cc1 (stereo not given),-2%,-23%
Cn1c(=O)c2c(nc(SCC(=O)Nc3ccc(F)cc3)n2C)n(C)c1=O,8%,1%
CN(Cc1ccccc1)c1nc2c(S(=O)(=O)c3cccc(Cl)c3)nnn2c2ccsc12,9%,8%

# Among those listed so far, 8 contain a furan ring, fused or not.
SMILES,StopGo FLuc,StopGo RLuc
CC(C)c1noc(CSc2nc(-c3ccco3)nc3ccccc23)n1,-10%,-20%
O=C(COC(=O)c1cccc(NC(=O)c2ccco2)c1)c1ccccc1,30%[activator],6%
O=c1c2oc3ccccc3c2n(Cc2ccccc2F)c(=O)n1Cc1ccc2c(c1)OCO2,-9%,-5%
COc1ccc(CCOC(=O)Cc2coc3cc(C)c(C)cc23)cc1,-1%,-14%
O=C(c1cc(-c2ccco2)nc2ccccc12)N1CCCC1,0%,11%
COC(=O)c1ccc(Oc2c(C)oc3cc(OC(=O)c4ccco4)ccc3c2=O)cc1,-9%,-14%
CC(C)(C)c1nc2cc(NC(=O)CNC(=O)c3ccc(Br)o3)ccc2o1,0%,7%
Cc1c2occ(C(C)(C)C)c2cc2c3c(/c(=N\O)oc12)CCCC3,-7%,3%
